HBB splicing = qHTS Assay for Modulators of Hemoglobin Beta Chain Splicing; HBB splicing reporter cell assay, activation; EGFP reporter with mutant IVS2-654 intron; response scale: normalised to 500 nM splice-correcting PNA; AID 925, 2007; 0.06% of 65,000 active; Potency, µM (titrated, usually from 46.1 µM), inactives show at the highest dose activation, hits mostly activators; also: potency is read from the fitted curve at half-maximal effect; 0% is about no effect
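HeLa cells stably expressing EGFP interrupted by mutant beta-globin intron 2 (IVS2-654), 500/well in 2% FCS. Treated with compound for 2 days at 37C. Splicing correction scored as total well GFP intensity (488 nm excitation, 500-520 nm emission); 500 nM antisense PNA served as control.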
USP2a inh = qHTS Assay for Inhibitors of Ubiquitin-specific Protease USP2a; USP2a enzymatic assay, qHTS inhibition; Potency, µM (series often up to 38.3 µM), without a hit: at the top dose activity change, negative = inhibition, actives largely listed as inhibitors; 0.1% of 60,000 active;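 also: potency is read from the fitted curve at half-maximal effect; nearly all actives have a fitted effect of over 60% in size; plate controls were DMSO for no effect and NEM full inhibition control for full effect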
Target sequence (O75604 whole entry, looked up): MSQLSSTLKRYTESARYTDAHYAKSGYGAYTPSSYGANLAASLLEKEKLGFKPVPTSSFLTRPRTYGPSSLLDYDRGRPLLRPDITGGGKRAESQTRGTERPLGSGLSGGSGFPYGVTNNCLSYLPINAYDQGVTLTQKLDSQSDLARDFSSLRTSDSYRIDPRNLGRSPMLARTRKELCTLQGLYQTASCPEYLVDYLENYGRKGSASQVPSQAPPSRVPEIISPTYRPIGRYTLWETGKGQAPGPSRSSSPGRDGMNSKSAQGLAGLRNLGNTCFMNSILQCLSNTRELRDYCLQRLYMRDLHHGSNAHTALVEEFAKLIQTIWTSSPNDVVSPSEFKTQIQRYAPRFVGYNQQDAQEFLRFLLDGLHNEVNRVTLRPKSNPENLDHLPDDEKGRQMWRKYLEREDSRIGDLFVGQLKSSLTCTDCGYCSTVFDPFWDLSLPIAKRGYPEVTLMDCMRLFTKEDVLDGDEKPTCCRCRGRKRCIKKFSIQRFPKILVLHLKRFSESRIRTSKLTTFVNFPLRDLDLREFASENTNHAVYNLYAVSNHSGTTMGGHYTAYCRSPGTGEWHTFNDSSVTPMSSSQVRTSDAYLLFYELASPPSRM
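Inhibition is measured in a cell-free coupled assay with 20 nM USP2 core, 20 nM Ub-PLA2 and 20 uM NBD C6-HPC, 2.5 h incubation. Activity normalized to NEM control.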
GFP derepression = qHTS Assay for Epigenetic Modulators; mouse C127i GFP locus derepression, cytometry, 30 h; Potency, µM (highest dose often 46.1 µM), for the others: top-dose GFP derepression (activation); 0.09% of 68,000 active; also: % of control where 0% means no effect
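Murine C127i mammary cells carrying a silenced, stably integrated CMV-driven GFP reporter were treated with compound for 30 hours at 37 C. After PBS washes, GFP-positive cells were counted by laser-scanning microplate cytometry.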
DNA Pol III inh = qHTS Assay for Inhibitors of DNA Polymerase III Holoenzyme System; reconstituted DNA polymerase III holoenzyme replication, biochemical; Potency, µM (doses to about 57.1 µM), inactives show at the highest dose activity change, negative = inhibition; 0.25% of 71,000 active; AID 603, 2007; also: potency is read from the fitted curve at half-maximal effect; % is scaled to controls: 0 for no effect and ±100 for the full control effect
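Reconstituted *E. coli* holoenzyme (0.35 nM Pol III, 1 nM beta, 154 nM SSB, 2 nM primase) was preincubated with compound for 15 min at RT. Synthesis on 1.4 nM ssM13Gori ran 35 min, then was stopped with PicoGreen/EDTA and read as dsDNA fluorescence.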
CRE-bla Fsk = Cell signaling CRE-BLA (Fsk stim); CHO CRE-bla reporter (cAMP response element driving beta-lactamase), forskolin EC10, beta-lactamase ratio; Potency, µM (top dose mostly 38.2 µM), for the others: top-dose activity change, negative = inhibition, most hits filed as activators; 2.5% of 71,000 active; active = well fitted activation curve with a large enough effect in the signal ratio, with a control signal flat, not every such curve was filed as active; inconclusive = small, poorly fitted or top-dose-only effect, or effect the other way, or a change in a side signal; the % refers to the signal ratio; also: potency is read from the fitted curve at half-maximal effect; % of control where 0% means no effect
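Modulation of forskolin signalling: compounds in titration series added with EC10 NKH 477 to CHO cells carrying a CRE-driven beta-lactamase reporter, 3 h, 37C. CCF4 FRET ratio (460/530 nm, ex 405 nm) gives %activity and AC50.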
BRCT PPI red = qHTS Assay for Inhibitors of BRCT-Phosphoprotein Interaction (Red Fluorophore). 0.03% of 75,000 active. Breast cancer type 1 susceptibility protein (Homo sapiens), P38398. AID 892, 2007. BRCT-phosphopeptide binding, red fluorescence polarization. Potency, µM (top dose mostly 76.9 µM), for inactives: top-dose activity change, negative = inhibition, actives largely listed as inhibitors; also: % is scaled to controls: 0 for no effect and ±100 for the full control effect
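Rhodamine-labelled pBACH1 10-mer (100 nM) bound to BRCT domain (100 nM) at pH 7.3; compounds incubated 12 min room temperature, polarization read. Free peptide defines full inhibition; unlabelled decapeptide titrated as control.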
ALOX15 inhib = qHTS Assay for Inhibitors of 15-hLO (15-human lipoxygenase); Polyunsaturated fatty acid lipoxygenase ALOX15 (Homo sapiens), P16050; purified 15hLO-1, xylenol orange hydroperoxide absorbance; Potency, µM (doses to about 57.1 µM), for the others: at the highest dose activity change, negative = inhibition, actives largely listed as inhibitors; 1.4% of 74,000 active; also: potency is read from the fitted curve at half-maximal effect; % is scaled to controls: 0 for no effect and ±100 for the full control effect; nearly all actives have a fitted effect of over 55% in size
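Purified human 15hLO-1 (40 nM) in 25 mM Hepes pH 7.5, 0.01% Triton X-100, preincubated 15 min RT with compound, then 50 uM arachidonic acid for 6 min. Hydroperoxide read by ferrous/xylenol orange, 30 min; 573/405 nm absorbance ratio gave progress.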
BRCT PPI green = qHTS Assay for Inhibitors of BRCT-Phosphoprotein Interaction (Green Fluorophore). Breast cancer type 1 susceptibility protein (Homo sapiens), P38398. Potency, µM (highest dose often 76.9 µM), for the others: top-dose activity change, negative = inhibition, hits mostly inhibitors. 0.05% of 75,000 active. BRCA1 BRCT-phosphopeptide binding, green fluorescence polarization;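 also: potency is read from the fitted curve at half-maximal effect; plate controls were peptide without protein for full effect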
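Compounds were incubated for 12 min at room temperature with a complex of 100 nM fluorescein-tagged pBACH1 decapeptide and 250 nM His-tagged BRCT protein. Buffer was phosphate pH 7.3 with EDTA, DTT and Tween 20. Disruption of binding lowers the polarization signal.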
UbGFP stabilizer = Ubiquitin-GFP Assay | Ubiquitin-GFP reporter cells, proteasome inhibition, GFP fluorescence; response scale: untreated = 0%, 10 µM MG-132 = 100% | Potency, µM (highest dose often 45.9 µM), for inactives: at the top dose activation (GFP accumulation), most hits filed as activators | 67,000 tested, under 10 active | AID 526, 2006; active = well fitted activation curve with a large enough effect, not every such curve was filed as active; inconclusive = small, poorly fitted or top-dose-only effect, or another doubt; inactive = no such curve, though single readings can be large or run the other way; also: potency is read from the fitted curve at half-maximal effect
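Proteasome blockade was scored as a rise in GFP-expressing U2OS cells carrying a ubiquitin(G76V)-GFP construct, imaged after 4 hr compound treatment at 37 °C across a 46 uM–2.9 nM series.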
The depositor's hits bear a star; u = inconclusive; x = no result given; [ ] = dose if it differs, or a comment. Unless noted, calls follow the shape of the dose curve; as a rule, active = well fitted curve in the direction sought with a large enough effect; inconclusive = small, poorly fitted or top-dose-only effect, or another doubt; inactive = no such curve, though single readings can be large; an effect the other way counts as inactive or inconclusive. Some of the compounds tested; rates above refer to the full screens.

1	CCn1c(CCNC(=O)c2ccc(Cl)cc2)nnc1SCC(=O)NC1CCCC1
2	O=C(Nc1ccncc1)c1ccccc1F
3	Cc1cccc(Cn2c(=O)n(CCCC(=O)NCc3ccco3)c(=O)c3ccccc32)c1
4	O=C(Nc1ccccc1C(=O)O)c1cccc(NC(=O)c2ccc(Br)o2)c1
5	CC1(C)Cc2ccccc2C(/C(=N/O)C(N)=O)=N1
6	CCOC(=O)CNC(=O)CSc1nnc(COc2ccc(Cl)cc2)n1CC
7	CCOC(=O)c1[nH]c(=O)[nH]c1CSc1nc(C)cc(C)n1
8	CCOc1ccccc1C(=O)NCCCn1ccnc1

| Assay by compound | 1 | 2 | 3 | 4 | 5 | 6 | 7 | 8 |
| --- | --- | --- | --- | --- | --- | --- | --- | --- |
| BRCT PPI green | -0.9% | -1.1% | 0.1% | 1.8% | -2.1% | -1.3% | -0.7% | -0.7% |
| GFP derepression | 2.7% | -1.8% | 4.8% | 4.8% | -1.2% | 4.2% | -3.5% | -2.7% |
| HBB splicing | 3.3% | 0.5% | -0.6% | -1.4% | x | 5.6%[0.369 µM] | -1.6%[0.0738 µM] | 0.5% |
| UbGFP stabilizer | 1.8% | 7.7% | 9.9% | -3.2% | -1.3% | x | 5.4%[9.17 µM] | 5.0% |
| BRCT PPI red | -1.1% | -1.0% | 1.6% | -3.3% | -0.3% | 0.9% | -0.9% | 0.0% |
| USP2a inh | -1.7% | -1.5% | -14.1% | -6.5% | -4.2% | -1.5% | -2.6%[7.66 µM] | -0.7% |
| DNA Pol III inh | 0.2% | -7.7% | 2.2% | -2.8% | -7.4% | -6.1% | 1.8%[11.4 µM] | 0.6% |
| CRE-bla Fsk | u | -19.1% | u | 4.4% | -2.7% | -3.3% | u | u |
| ALOX15 inhib | 6.3% | 7.8% | -20.4% | -4.1% | 6.8% | -4.0% | -0.2%[11.4 µM] | 6.9% |

9	O=c1c2c3nc4ccccc4nc3n(/N=C/c3cccs3)c2ncn1-c1ccccc1
10	COC(=O)CCC(=O)COc1ccc(OC)cc1C#N
11	O=C(Cc1n[nH]c(=O)c2ccccc12)OCC(=O)c1ccc2c(c1)OCCO2
12	CCCc1nc(C)c(-c2ccc(OC)c(OC)c2)c(=O)[nH]1
13	COC(=O)c1ccc2c(c1)N(Cc1nc(-c3cccc(Cl)c3)oc1C)C(=O)C1CCCN21 (stereo not given)
14	CCn1c(COc2ccc(Cl)cc2)nnc1SCC(=O)Nc1ccc2c(c1)OCO2
15	C=CCNc1nc(N(c2ccccc2)c2ccccc2)nc(-n2ccnc2)n1
16	COc1cc(-c2ccc(NC(=O)CN3CCCCC3)c(OC)c2)ccc1NC(=O)CN1CCCCC1

| Assay by compound | 9 | 10 | 11 | 12 | 13 | 14 | 15 | 16 |
| --- | --- | --- | --- | --- | --- | --- | --- | --- |
| BRCT PPI green | -0.4% | -2.5% | -0.4% | -6.3% | 1.5% | -1.8% | -1.1% | -1.0% |
| GFP derepression | -2.1% | 1.6% | 1.0% | 1.9% | 4.8% | 0.0% | 0.0% | 0.8% |
| HBB splicing | -0.2%[0.369 µM] | 2.3%[1.84 µM] | -0.1%[57.5 µM] | 3.7% | -3.4% | -2.6%[0.369 µM] | -0.3% | 0.0% |
| UbGFP stabilizer | x | 8.8% | 0.0% | 12.2% | -2.7% | x | 11.4% | 1.8% |
| BRCT PPI red | 0.2% | -0.2% | 1.8% | 0.7% | 1.5% | 0.4% | 1.2% | 0.4% |
| USP2a inh | 27.2% | 0.7% | 27.1% | -11.4% | 44.1%[activator] | 9.8% | 12.9% | -4.1% |
| DNA Pol III inh | -6.3% | -1.3% | -3.5% | 0.3% | -2.5% | -6.2% | -4.6% | -2.4% |
| CRE-bla Fsk | 5.01µM* | u | 15.4% | 6.9% | u | -0.3% | u | -7.8% |
| ALOX15 inhib | -7.6% | 4.7% | -6.3% | -10.4% | 12.6µM* | -7.8% | 17.3% | 8.2% |

17	CCCCNc1nc(N(C)c2ccccc2)nc(-n2ccnc2)n1
18	c1coc(Cn2nnnc2CN2CCN(C3CCCC3)CC2)c1
19	O=C1CC(Cc2ccccc2)C(=O)N1Cc1ccco1 (stereo not given)
20	Cc1ccc(S(=O)(=O)N2CCC(C(=O)N[C@H](C(=O)NCC3CCCO3)C(C)C)CC2)cc1 (stereo not given in full)
21	COc1ccc(OC)c(CN(CCCN2CCOCC2)S(=O)(=O)c2ccc(NC(C)=O)cc2)c1
22	Clc1nc2sccn2c1/C=N/n1cnc2ccccc21

| Assay by compound | 17 | 18 | 19 | 20 | 21 | 22 |
| --- | --- | --- | --- | --- | --- | --- |
| BRCT PPI green | -1.8% | 0.9% | 5.5% | 1.1% | -1.1% | 1.7% |
| GFP derepression | -2.0% | 1.3% | -3.3% | -2.0% | -2.1% | -1.9% |
| HBB splicing | -0.8% | -3.0% | -2.5% | 0.1%[1.84 µM] | -0.9%[0.369 µM] | -0.2%[57.5 µM] |
| UbGFP stabilizer | -0.3% | 2.1% | -8.7% | -3.6% | x | 2.0% |
| BRCT PPI red | -1.8% | 0.4% | 1.2% | -0.4% | -0.7% | 2.5% |
| USP2a inh | -4.7% | -10.7% | 45.9%[activator] | 12.4% | 9.5% | -5.8% |
| DNA Pol III inh | 1.4% | -4.9% | 0.1% | 1.1% | -5.5% | -7.2% |
| CRE-bla Fsk | u | -2.7% | -10.4% | u | 11.4% | 9.5% |
| ALOX15 inhib | 5.3% | -2.0% | -1.8% | 1.4% | 11.4% | -9.6% |

High-throughput results from PubChem BioAssay.
